# Polio RdRp inh: poliovirus RdRp elongation inhibitors, primary screen, biochemical, fluorescence polarization, total intensity | % elongation, % (compound at 16.7 µg/mL) | Genome polyprotein (Poliovirus type 1 (strain Mahoney)), P03300 | actives 0.66% (n = 150,000) | poliovirus polymerase elongation; active compounds read low | AID 588519, 2011; in the data active = % elongation below about 90%; note: some results filed as inactive read as strong as hits
# Target sequence (P03300 1749-2209 limits assumed): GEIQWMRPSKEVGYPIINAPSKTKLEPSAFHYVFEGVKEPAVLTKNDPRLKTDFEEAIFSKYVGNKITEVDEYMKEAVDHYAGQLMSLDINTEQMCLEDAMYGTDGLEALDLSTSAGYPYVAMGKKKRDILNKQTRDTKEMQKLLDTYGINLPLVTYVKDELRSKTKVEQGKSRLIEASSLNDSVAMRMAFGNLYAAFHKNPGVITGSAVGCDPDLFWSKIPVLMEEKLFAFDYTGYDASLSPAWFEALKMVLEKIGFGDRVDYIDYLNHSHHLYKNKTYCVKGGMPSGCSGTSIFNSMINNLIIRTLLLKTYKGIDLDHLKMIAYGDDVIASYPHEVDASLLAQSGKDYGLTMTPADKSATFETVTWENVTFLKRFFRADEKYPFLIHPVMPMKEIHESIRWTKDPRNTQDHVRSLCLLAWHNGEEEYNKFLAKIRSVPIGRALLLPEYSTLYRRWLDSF
# Polio RdRp inh intensity: recorded beside Polio RdRp inh, whose call it bears; % elongation; measured here: total intensity read-out; formula for this scale not given here;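 total fluorescence in place of polarization; lower means less elongation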
# * = called active by the depositor.
compound | Polio RdRp inh | Polio RdRp inh intensity
Cc1ccc(CN(C(=O)COc2ccc(Cl)cc2C)C2CCS(=O)(=O)C2)o1 (centres undefined) | 118 | 116
COc1cccc(NC(=O)CSC2=Nc3ccccc3C3=NC(CCC(=O)NC4CCCCC4)C(=O)N23)c1 (centres undefined) | 107 | 110
Cc1c(NC(=O)c2cc(-c3cccc(Cl)c3)on2)c(=O)n(-c2ccccc2)n1C | 108 | 108
Cc1ccc(Cl)cc1NC(=O)Cn1cc(S(=O)(=O)Cc2ccccc2Cl)c2ccccc21 | 108 | 103
Oc1c(C(c2ccccc2F)N2CCC3(CC2)OCCO3)sc2nc(-c3ccco3)nn12 (centres undefined) | 107 | 102
COc1cc2c(-c3ccc(C)cc3)nc3c(c(C)nn3-c3ccccc3)c2cc1OC | 108 | 111
Cc1ccc(-n2ncc(C(=O)NCc3ccccc3)c2C2CCN(C(=O)OC(C)(C)C)CC2)cc1 | 103 | 100
CC(C)c1ccc(NC(=O)C2(C)Cc3ccccc3C(=O)O2)cc1 (centres undefined) | 107 | 110
COc1cccc(NS(=O)(=O)c2ccc3[nH]cc(C(=O)N(C)C4CCCCC4)c(=O)c3c2)c1 | 105 | 105
Cc1ccc2nc(NC(=O)CSc3[nH]c(=O)ncc3C)sc2c1 | 99 | 95
Cc1ccccc1-c1noc(-c2ccc(N3CCN(C)CC3)c([N+](=O)[O-])c2)n1 | 105 | 100
Cc1cccc(NC(=O)Cn2cc(C(=O)C3CCCCC3)c3ccccc32)c1C | 103 | 106
O=C(Cn1ncc2c3ccccc3n(Cc3ccc(F)cc3)c2c1=O)NCCCN1CCCCC1 | 104 | 104
Cc1ccccc1NC(=O)CSc1nc2ccc(NC(=O)c3cccs3)cc2s1 | 116 | 111
COc1ccc(-c2cn3c(n2)sc2cc(C(=O)NC(C)C45CC6CC(CC(C6)C4)C5)ccc23)cc1 (centres undefined) | 110 | 109
CN(C(=O)CSc1nc2ccccc2n1CC(=O)NCc1ccc(F)cc1)c1ccc(F)cc1 | 103 | 98
COc1ccc(C(=O)/C=C/c2cn(CC(O)CN3CCCCCC3)c3ccccc23)cc1OC (centres undefined) | 104 | 107
Cc1ccc(NC(=O)CSc2nc3ccccc3c3nc(CCn4cncc4C)nn23)c(C)c1 | 110 | 114
COC(=O)CNC(c1ccccc1)c1cc(Br)ccc1NC(=O)c1ccccc1 (centres undefined) | 103 | 106
CC1CCCc2sc3nc(SCC(=O)c4ccc(Br)cc4)nc(N)c3c21 (centres undefined) | 104 | 108
CN(C)c1ccc(CNC(=O)c2ccc(NC(=O)N3CCCCc4ccccc43)cc2)cc1 | 111 | 98
CCCn1c(SCC(O)c2ccccc2)nc2ccccc21 (centres undefined) | 108 | 106
Cc1ccc(C)c(NC(=O)C2CCCN2S(=O)(=O)c2ccc3c(c2)CCCC(=O)N3)c1 (centres undefined) | 103 | 106
COc1cccc(CN2C(=O)c3ccccc3Sc3ccc(C(=O)NCc4ccccc4)cc32)c1 | 114 | 115
COc1ccc(CNS(=O)(=O)c2csc(C(N)=O)c2)cc1OC | 110 | 118
CCc1ccc(-c2cc(C)no2)cc1S(=O)(=O)Nc1ccc(Cl)cn1 | 106 | 109
CCOc1ccc(NC(=O)Cn2c(=O)n(CCCS(=O)(=O)C3CCCCC3)c(=O)c3ccccc32)cc1 | 105 | 107
COc1cccc(N2CCN(C(=O)C3CCN(S(=O)(=O)c4c(C)noc4/C=C/c4ccccc4F)CC3)CC2)c1 | 103 | 102
O=C(CC1C(=O)OCCN1Cc1ccccc1)Nc1cccc(Cl)c1 (centres undefined) | 102 | 99
COc1cccc(Cn2c(NCc3ccc(C)cc3)nc3c2c(=O)n(C)c(=O)n3C)c1 | 108 | 110
CCc1cccc(C)c1NC(=O)CN1C(=O)C2(SCC(=O)N2c2cc(C)cc(C)c2)c2ccccc21 (centres undefined) | 106 | 100
Cc1cc(NC(=O)c2cc(-c3cccc(Cl)c3)on2)nn1Cc1ccc(Cl)cc1 | 101 | 102
O=C(O)c1cc(NC2(c3ccccc3)C(=O)c3ccccc3C2=O)ccc1Cl | 106 | 102
COc1ccccc1NC(=O)CCn1cnc2ccccc2c1=O | 106 | 109
Cc1ccc(Cl)cc1NC(=O)C1CCN(c2nnc(C)c3c(C)n(-c4ccccc4)nc23)CC1 | 103 | 106
CCOc1ccc(NC(=O)Cc2c[nH]c3ccccc23)cc1 | 106 | 110
COc1ccc(-c2ccc(=O)n(CC(=O)Nc3ccc(OC)c(OC)c3)n2)cc1 | 104 | 103
Cc1cccc(C(=O)Nc2nc(-c3nnn(-c4cc(C)ccc4C)c3C)ns2)c1 | 112 | 117
O=C(O)CCn1cnc2onc(-c3ccccc3Cl)c2c1=O | 103 | 101
CCCC(=O)Nc1nnc(S(=O)(=O)N2CCCCCC2)s1 | 105 | 107
COc1cc2c(=O)c(S(=O)(=O)c3ccc(F)cc3)cn(Cc3ccccc3C)c2cc1OC | 103 | 103
Cc1ccccc1Nc1c(-c2ccc(O)cc2)nc2c(C)cccn12 | 104 | 105
CCOCCc1nn2c(=O)cc(COC(=O)c3cccc(C)c3)nc2s1 | 106 | 114
CCOc1ccccc1NC(=O)Cc1coc2c(C)c(C)ccc12 | 115 | 108
COc1cc(NC(=O)Cn2c(=O)n(-c3ccccc3)c(=O)c3c4c(sc32)CCCC4)cc(OC)c1 | 109 | 110
CCOC(=O)CSc1nc2cc3c(cc2c(=O)n1CCCCCC(=O)NCc1ccc2c(c1)OCO2)OCO3 | 100 | 108
Cc1ccccc1CN1CCCN(CC(=O)Nc2ccc(F)cc2)S1(=O)=O | 103 | 107
O=C(COc1ccccc1F)OCc1cc(=O)n2nc(C3CCCCC3)sc2n1 | 110 | 118
COC(=O)c1cc2oc3ccccc3c2n1CC(=O)Nc1ccc(OC)c(OC)c1 | 108 | 109
CCC(=O)N1CCc2cc(S(=O)(=O)NC(Cc3ccccc3)C(=O)Nc3ccccc3C)ccc21 (centres undefined) | 104 | 101
Cc1cccc(Cn2c(=O)n(CCCCC(=O)NCc3ccc4c(c3)OCO4)c(=O)c3ccccc32)c1 | 107 | 111
CCCOc1ccc(-c2nc3ccc(Br)cc3c(=O)o2)cc1 | 103 | 112
COc1ccc(CNC(=O)c2oc3c(c2C)-c2nn(Cc4ccccc4Cl)cc2CC3)cc1 | 97 | 103
COc1ccc(-n2nc(C(=O)N3CCCC(C)C3)c3c4ccccc4n(C)c3c2=O)cc1 (centres undefined) | 106 | 104
CCCN(CCC)CCCNC(=O)C1CCC(CNS(=O)(=O)c2cccc3nsnc23)CC1 (centres undefined) | 109 | 112
COc1ccccc1N1CCN(C(=O)c2ccc(Nc3nc4ccccc4n4nnnc34)cc2)CC1 | 103 | 107
CCOC(=O)c1ccc(NC(=O)CSc2nc(-c3ccc(OC)cc3)cc(C(F)(F)F)c2C#N)cc1 | 102 | 122
CCOc1ccc(OCC)c(NC(=O)CN(C)S(=O)(=O)c2ccc3c(c2)CCCC(=O)N3)c1 | 107 | 108
CCCN1C(=O)c2[nH]nc(-c3ccc(F)cc3)c2C1c1ccc(O)c(OCC)c1 (centres undefined) | 111 | 116
CCC(=O)N1CCc2cc(S(=O)(=O)CCC(=O)N3CCN(c4cccc(C)c4)C(C)C3)ccc21 (centres undefined) | 110 | 112

# (listing goes on)
compound | Polio RdRp inh | Polio RdRp inh intensity
CN=C(Nc1cc(C)nn1CCC#N)c1ccccc1F | 104 | 104
O=C1CN(C(=O)c2ccc(S(=O)(=O)N3CCCC3)cc2)C(c2ccccc2)c2cc(Br)ccc2N1 (centres undefined) | 106 | 109
Cc1ccc(C)c(N2CCN(C(=O)CN3C(=O)COc4ccc(S(=O)(=O)N5CCC(C)CC5)cc43)CC2)c1 | 105 | 107
COc1ccc2c(CNCc3cccs3)c(C(=O)O)n(Cc3ccccc3C)c2c1 | 113 | 110
COc1ccc(CNC(=O)c2ccc3c(c2)CCN3S(=O)(=O)c2ccc(Cl)cc2)cc1 | 112 | 113
COc1cccc(OCc2nc3ccccc3n2Cc2ccccc2)c1 | 111 | 113
CCOC(=O)c1sc(NC(=O)c2nc3ncccn3n2)c(C(=O)OC(C)C)c1C | 109 | 116
COc1cc(NC(=O)c2nn(-c3ccc(F)cc3)c(=O)n(C)c2=O)cc(OC)c1OC | 106 | 101
CCOc1ccc(CN(CCc2ccc3c(c2)OCO3)Cc2cccc(OC)c2)cc1 | 100 | 99
CCc1ccc(CNc2ncnc3c2nc2n3CCCC2)cc1 | 105 | 113
CCn1c(=O)c(C(=O)Nc2cc(OC)c(OC)c(OC)c2)nc2ccccc21 | 109 | 112
COc1ccc(CNc2ncnc3onc(C)c23)cc1 | 97 | 107

# (continued)
molecule | Polio RdRp inh | Polio RdRp inh intensity
Cc1ccc(CCNC(=O)c2ccc(CSCc3ccccc3C)o2)cc1 | 110 | 105
COCCCNC(=O)c1[nH]c2cc(OC)ccc2c1Sc1ccc(C)cc1 | 114 | 111
CSc1nn(Cc2cccc(F)c2)c(N(C(C)=O)C(C)=O)c1S(=O)(=O)c1ccccc1 | 107 | 110
COc1cccc(CNC(=O)c2ccc3c(c2)nnn3C2CCCC2)c1 | 114 | 106
COc1ccc(-c2cc(C)no2)cc1S(=O)(=O)N1CC(C)Oc2ccccc21 (centres undefined) | 106 | 106
CCC1CCCCN1C(=O)Cn1c(=O)n(CC2CCC(C(=O)NC)CC2)c(=O)c2sccc21 (centres undefined) | 108 | 107
Cc1ccccc1Cn1c(SCc2ccc(C(=O)NC(C)c3ccccc3)cc2)nc2ccncc21 (centres undefined) | 108 | 111
CCN1CCN(C(=O)c2ccc3c(c2)N(Cc2cc(C)ccc2C)C(=O)c2ccccc2S3=O)CC1 (centres undefined) | 101 | 103
COC(=O)c1ccc(NC(=O)CCc2c(C)nn(-c3ccc(N4CCCC4)nn3)c2C)cc1 | 98 | 104
Cc1ccc(CC(=O)N(Cc2nc(-c3ccc(C)cc3)no2)C(C)C)cc1 | 105 | 107
Fc1ccc(CNc2ncnc3onc(-c4ccc(F)cc4)c23)cc1 | 108 | 109
c1csc(NC2CCCCC2)n1 | 101 | 105

# Compound profiles (already shown). Screens in order: Polio RdRp inh, Polio RdRp inh intensity
# `O=C(COc1ccccc1F)OCc1cc(=O)n2nc(C3CCCCC3)sc2n1` across the screens: 110, 118
# `CCN1CCN(C(=O)c2ccc3c(c2)N(Cc2cc(C)ccc2C)C(=O)c2ccccc2S3=O)CC1` (centres undefined) across the screens: 101, 103
# `Cc1ccc(CC(=O)N(Cc2nc(-c3ccc(C)cc3)no2)C(C)C)cc1` across the screens: 105, 107

# Next part:
molecule | Polio RdRp inh | Polio RdRp inh intensity
CCN(Cc1ccccc1)C(=O)Cn1cc(S(=O)(=O)Cc2cccc(Cl)c2)c2ccccc21 | 108 | 113
Cc1nc2ncnn2c(C)c1CCC(=O)N1CCN(c2ccccc2)CC1 | 103 | 108
COc1ccc(N2CC(NC(=O)c3ccc4c(c3)OCO4)CC2=O)cc1OC (centres undefined) | 108 | 104
CC(=O)c1cccc(NS(=O)(=O)c2cc3c(cc2C)n(C)c(=O)c(=O)n3C)c1 | 112 | 112
CCSc1nc2n(n1)C(c1ccc(Cl)cc1Cl)C(C(=O)Nc1ccccc1C)=C(C)N2 (centres undefined) | 109 | 103
Cc1nc2cccnc2n1-c1cccc(C(=O)NCCN(C)C)c1 | 106 | 111
CCC1=C(c2ccc(C)cc2)S(=O)(=O)N=C1N1CCC(C(=O)NCCc2cccc(OC)c2)CC1 | 108 | 110
CCOC(=O)c1sc2ncn(CC(=O)Nc3ccc(OC)c(Cl)c3)c(=O)c2c1C | 109 | 104
CC(=O)c1ccc(NC(=O)Cn2cc(S(=O)(=O)Cc3ccccc3Cl)c3ccccc32)cc1 | 102 | 106
CN(C(=O)c1cc2c(=O)n3ccccc3nc2n1C)c1ccccc1 | 114 | 115
COc1cccc(-n2c(=O)c3c(C)c(C(=O)N(C)C)sc3n(Cc3cccc(C)c3)c2=O)c1 | 101 | 108
COc1ccc(OC)c(CNCc2c(C(=O)O)n(Cc3cccc(F)c3)c3cc(OC)ccc23)c1 | 109 | 109

# Nothing new here: three of the compounds above.
molecule | Polio RdRp inh | Polio RdRp inh intensity
Cc1nc2cccnc2n1-c1cccc(C(=O)NCCN(C)C)c1 | 106 | 111
CCC1=C(c2ccc(C)cc2)S(=O)(=O)N=C1N1CCC(C(=O)NCCc2cccc(OC)c2)CC1 | 108 | 110
CCOC(=O)c1sc2ncn(CC(=O)Nc3ccc(OC)c(Cl)c3)c(=O)c2c1C | 109 | 104

# Further records
molecule | Polio RdRp inh | Polio RdRp inh intensity
COc1cccc(CNC(=O)CCc2c(C)nc3c(c2C)c(=O)n(C)c(=O)n3C)c1 | 106 | 106
Cc1cccc(CC(=O)NC2CC(=O)N(c3ccccc3)C2)c1 (centres undefined) | 108 | 113
COc1cccc(CNC(=O)COCc2cc(-c3ccc4c(c3)OCO4)on2)c1 | 103 | 106
CC1=Nc2cc(C(=O)NCc3ccc(C)cc3)ccc2Sc2ccc(Cl)cc21 | 104 | 110
COc1ccc(OCC(=O)NCC2(N3CCN(C)CC3)CCCCC2)cc1 | 107 | 106
COc1ccccc1N1CCN(C(=O)Cn2ncc3ccsc3c2=O)CC1 | 108 | 108
Cc1nn(S(=O)(=O)c2ccc(C(C)(C)C)cc2)c(C)c1S(=O)(=O)N1CCC(C)CC1 | 109 | 108
Cc1ccc(-c2nc3ncccc3o2)cc1NC(=O)c1cccc(OCC(C)C)c1 | 102 | 101
CCCC(=O)n1nc(-c2ccco2)nc1NCc1ccccc1Cl | 112 | 113
COc1cccc(-n2c(=O)c3sc4ccccc4c3n(CC(=O)Nc3cccc(Cl)c3)c2=O)c1 | 105 | 105
Fc1ccc(-c2cc(-c3ccccc3)c3c(n2)-c2cc(F)ccc2OC3)cc1 | 108 | 110
CC(Oc1ccccc1)C(=O)OCc1cc(=O)n2nc(C(C)C)sc2n1 (centres undefined) | 102 | 94
CC1=C(C(N)=O)C(c2ccc(C(C)C)cc2)n2nc(SCc3ccccc3F)nc2N1 (centres undefined) | 107 | 107

# Exported as labelled records: entries from further up.
CC(Oc1ccccc1)C(=O)OCc1cc(=O)n2nc(C(C)C)sc2n1 (centres undefined)
  Polio RdRp inh: 102 | Polio RdRp inh intensity: 94
CC1=C(C(N)=O)C(c2ccc(C(C)C)cc2)n2nc(SCc3ccccc3F)nc2N1 (centres undefined)
  Polio RdRp inh: 107 | Polio RdRp inh intensity: 107

# This is a subset (hit frequency here may not be typical).
